NPYLR7 ag = mosquito NPYLR7 agonism | activation, % at 10 µM | 270,000 tested, 0.15% active | AID 1259423 | HEK293T NPYLR7/Galpha15, GCaMP6s calcium fluorescence; in the data active = activation above about 40%;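 also: 0% = vehicle and 100% = reference agonist at the receptor; some compounds past the cut are filed as inactive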
NPYLR7 ag max-min = recorded beside NPYLR7 ag, whose call it bears; activation, %; measured here: Max-Min RFU normalised activation; some inactives read as strong as hits;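 span of the calcium signal over five minutes; 0% = vehicle and 100% = native peptide agonist; compound fluorescence can raise it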
An asterisk follows results filed as active.

1. O=S(=O)(/C=C/c1ccc(Cl)cc1)Nc1cccc(Oc2ncccn2)c1
2. O=C(CN1C(=O)/C(=C/c2ccccc2)SC1=S)NNC(=O)c1cccnc1
3. O=C1CC(c2ccc(Cl)cc2)CC2=Nc3ccccc3NC(c3ccc(Cl)c(Cl)c3)C12 (stereo unspecified)
4. CCOC(=O)c1nc2cc(Cl)c(Cl)cc2nc1N1CCCN(C(=O)c2ccc(C#N)cc2)CC1
5. COc1ccc(-c2ccc(C(=O)N(C)CCC#N)c(F)c2)c(F)c1
6. C=CCN1C[C@@H]2C[C@@H](C(N)=O)N(C(=O)C3CCCCC3)c3cccc(c32)C1=O
7. Cc1cccc(C)c1N(CC(=O)NN=C1CCCCCCC1)S(C)(=O)=O
8. CC(C)=CC(=O)NCCC1CCCN(Cc2ccco2)C1 (stereo unspecified)

screen / no.	1	2	3	4	5	6	7	8
NPYLR7 ag	7.4	-0.2	-9.5	-10.0	-3.8	0.5	-4.0	0.5
NPYLR7 ag max-min	5.3	7.5	-13.3	-13.7	-9.2	13.5	-5.7	0.1

9. O=C(CSc1ccc(-c2ccc(-n3cccn3)cc2)nn1)N1CCN(c2ccccc2)CC1
10. CCOC(=O)c1c(NC(=O)Cn2nc(C(F)(F)F)cc2C)sc2c1CCC(C(C)(C)C)C2 (stereo unspecified)
11. COc1ccc(C2CC(c3ccccc3F)=NN2C(=O)CN2CCN(C(C)=O)CC2)cc1 (stereo unspecified)
12. O=C(NCCc1cccs1)c1cc(-c2ccc3c(c2)OCO3)nc2ccccc12
13. CCc1ccccc1NC(=O)N(CCOC)Cc1nc(C(=O)NC2CCN(Cc3ccccc3)CC2)cs1
14. Cc1ccc(CNc2cnccc2CO)c(C)c1
15. O=C(O)/C=C/c1ccc(-c2cccc(Cl)c2)s1
16. COCCN(Cc1ccc(OC)cc1)c1c(C)nc2ccc(C(=O)NC(C)(C)C)cn12

screen / no.	9	10	11	12	13	14	15	16
NPYLR7 ag	22.5	1.7	0.5	18.7	13.8	1.8	9.3	-0.8
NPYLR7 ag max-min	5.7	-2.5	9.8	25.8	9.5	13.2	5.2	-4.9

Reformatted: results already given
| # | SMILES | NPYLR7 ag | NPYLR7 ag max-min |
| --- | --- | --- | --- |
| 9 | O=C(CSc1ccc(-c2ccc(-n3cccn3)cc2)nn1)N1CCN(c2ccccc2)CC1 | 22.5 | 5.7 |
| 10 | CCOC(=O)c1c(NC(=O)Cn2nc(C(F)(F)F)cc2C)sc2c1CCC(C(C)(C)C)C2 (stereo unspecified) | 1.7 | -2.5 |
| 12 | O=C(NCCc1cccs1)c1cc(-c2ccc3c(c2)OCO3)nc2ccccc12 | 18.7 | 25.8 |

The listing continues:
17. O=C1c2cccc3c(Cl)ccc(c23)N1CC(O)COc1ccc(F)cc1 (stereo unspecified)
18. COCC(c1ccccn1)N(C)Cc1ccc2c(c1)CCO2 (stereo unspecified)
19. CC1CN(c2cc(Oc3ccccc3Cl)ncn2)CCN1C(=O)COc1ccccc1 (stereo unspecified)
20. CC(=O)Nc1ccc(C2CC(=O)Nc3c2c(C)nn3Cc2cccc(C)c2)cc1 (stereo unspecified)
21. CCOC(=O)c1ccc(NC(=O)N(CC(=O)N(Cc2ccccc2)Cc2sccc2C)C2CCCCC2)cc1
22. O=C(CCN(Cc1ccco1)c1nc(C2CC2)nc2ccccc12)NCc1cccc(C(F)(F)F)c1
23. Cc1ccc(S(=O)(=O)c2nc(S(C)(=O)=O)sc2N2CCCC2)cc1
24. O=C(CSc1nc2ccc(N3C(=O)c4ccccc4C3=O)cc2s1)Nc1ccccc1F

screen / no.	17	18	19	20	21	22	23	24
NPYLR7 ag	16.4	7.4	3.5	-0.8	0.0	11.2	6.6	-2.6
NPYLR7 ag max-min	12.9	4.0	8.8	-2.2	4.7	33.4	4.3	-7.5

Arranged by SMILES length (lowest first): four of the compounds above
17. O=C1c2cccc3c(Cl)ccc(c23)N1CC(O)COc1ccc(F)cc1 (stereo unspecified)
24. O=C(CSc1nc2ccc(N3C(=O)c4ccccc4C3=O)cc2s1)Nc1ccccc1F
22. O=C(CCN(Cc1ccco1)c1nc(C2CC2)nc2ccccc12)NCc1cccc(C(F)(F)F)c1
21. CCOC(=O)c1ccc(NC(=O)N(CC(=O)N(Cc2ccccc2)Cc2sccc2C)C2CCCCC2)cc1

screen / no.	17	24	22	21
NPYLR7 ag	16.4	-2.6	11.2	0.0
NPYLR7 ag max-min	12.9	-7.5	33.4	4.7

More results:
25. Cc1ccc2[nH]c(CCCNC(=O)c3ccc(-n4cnnc4)cc3)nc2c1C
26. CC(=O)Nc1ccc(CN2C(=O)C(C)Sc3ccccc32)cc1 (stereo unspecified)
27. CC1CN(C(=O)C(C)N2C(=O)NC3(CCCC3)C2=O)CC1N(C)C (stereo unspecified)
28. O=C(Nc1ccc(N2CCN(S(=O)(=O)c3cccs3)CC2)nc1)c1ccco1
29. O=C(NC1CCCCCC1)C1CCC(=O)N1C1CCCC1 (stereo unspecified)
30. Cc1ccc(NC2Nc3cc(C)nn3S2)c(C)c1 (stereo unspecified)
31. Cn1c(CN(Cc2ccccc2)Cc2ccco2)cc(=O)n(C)c1=O
32. COc1ccc(-n2nc(C(C)(C)C)cc2NC(=O)CN(CC(C)C)C(=O)Nc2ccc(C)c(Cl)c2)cc1

screen / no.	25	26	27	28	29	30	31	32
NPYLR7 ag	7.3	8.4	0.6	-2.0	6.2	6.0	0.0	-0.1
NPYLR7 ag max-min	3.0	5.8	42.6	-10.2	4.3	6.4	-1.1	2.9

Gathered by group: those above with a cyano group (two)
4. CCOC(=O)c1nc2cc(Cl)c(Cl)cc2nc1N1CCCN(C(=O)c2ccc(C#N)cc2)CC1
5. COc1ccc(-c2ccc(C(=O)N(C)CCC#N)c(F)c2)c(F)c1

screen / no.	4	5
NPYLR7 ag	-10.0	-3.8
NPYLR7 ag max-min	-13.7	-9.2

(listing goes on)
33. O=C1C(Nc2ccc(Cl)cc2)=C(N2CCOCC2)C(=O)c2ccccc21
34. Cc1ccc(-c2n[nH]c(=S)n2N=Cc2ccccc2O)cc1
35. CCC(=O)NC(c1ccccc1Cl)c1c(O)ccc2ccccc12 (stereo unspecified)
36. CN1CC(C(=O)N(C)Cc2csc3ccccc23)CC1=O (stereo unspecified)
37. O=C(NC(C(=O)NC1CC1)C1CCN(C(=O)c2ccc3c(c2)OCO3)CC1)c1ccc(F)cc1 (stereo unspecified)
38. COCCn1cc(NC(=O)Nc2cccc(C)c2)c2ccccc21
39. O=c1[nH]c(O)c(C=Nc2ccccc2)c(=O)[nH]1
40. Cc1cc(C(=O)N2CCc3c(nc(C)[nH]c3=O)C2)n[nH]1

screen / no.	33	34	35	36	37	38	39	40
NPYLR7 ag	-1.5	-6.1	-5.3	0.3	3.6	26.7	5.0	4.9
NPYLR7 ag max-min	4.4	-8.6	-7.6	-2.2	2.8	13.7	3.2	6.3

41. Cc1cc(C)c(S(=O)(=O)NCCn2nc(-c3cccs3)ccc2=O)cc1C
42. O=C(COC(=O)c1ccc(F)c(S(=O)(=O)N2CCCCC2)c1)NC1CCCCCC1
43. CC1=NN(CC(=O)NCc2cc(-c3ccc(F)cc3)no2)CC1
44. COc1ccc(OC)c(-n2c(SCC(=O)NC3CCCC3)nc3ccccc3c2=O)c1
45. CC(C)c1nccn1C1CCN(Cc2ccccc2)C1 (stereo unspecified)
46. O=[N+]([O-])c1ccc(-c2nc(C3CCCCC3)no2)cc1
47. Cc1nc(SCC(=O)N(C)CC23CC4CC(CC(C4)C2)C3)oc1C
48. CN(Cc1ccccc1C(F)(F)F)C(=O)C1CCC(=O)N(CC2CCCCC2)C1 (stereo unspecified)

screen / no.	41	42	43	44	45	46	47	48
NPYLR7 ag	13.6	4.4	2.1	-4.7	5.0	-4.3	1.5	11.7
NPYLR7 ag max-min	11.6	1.5	-0.7	-8.0	2.5	-7.6	0.3	9.0

49. CO[C@H]1CN(C)[C@@H]2Cc3c(n(C)c4ccccc34)[C@H]1C2
50. O=C(NCCCSc1ccccc1)c1cccc(O)c1
51. O=C(CCCCSc1nnc(-c2ccco2)n1-c1cccc(C(F)(F)F)c1)NC1CCN(Cc2ccccc2)CC1
52. CCc1ccc(C(=O)Nc2ncc(C)s2)s1
53. Cc1ccc(C(CC(=O)NC(C)C)c2cn(C)c3ccccc23)cc1 (stereo unspecified)
54. CCCNC(=O)C(CC)n1nc(CC)n2c(cc3oc(C)cc32)c1=O (stereo unspecified)
55. COCCCN(CC(=O)N(CCc1c[nH]c2ccccc12)Cc1ccc(C)cc1)C(=O)Nc1ccc(OC)cc1
56. Cc1ccsc1CN(C)S(=O)(=O)c1ccc2c(c1)C(C)(C)C(=O)N2

screen / no.	49	50	51	52	53	54	55	56
NPYLR7 ag	29.8	5.7	-1.0	1.2	-3.3	2.8	14.0	-4.6
NPYLR7 ag max-min	30.5	1.6	7.4	0.1	3.2	2.2	6.4	-5.7

Down the list, quoted from above:
NPYLR7 ag max-min, nos. 49 to 56, in order: 30.5, 1.6, 7.4, 0.1, 3.2, 2.2, 6.4, -5.7

(listing goes on)
57. COc1cccc2sc(N(Cc3ccccn3)C(=O)Cc3ccc(S(C)(=O)=O)cc3)nc12
58. O=C(CCN(CCCN1CCOCC1)c1nc(-c2ccc(F)cc2)nc2ccccc12)Nc1cccc(F)c1
59. CCN(CC)c1ccc(CN(CCOC)C(=O)Nc2ccccc2OC)c(OS(C)(=O)=O)c1
60. Cc1csc(C2(NS(=O)(=O)c3c(Cl)cc(Cl)cc3Cl)CCC2)n1
61. CN(C)CCNc1cc(-c2ccc(Cl)cc2F)c2cc[nH]c2n1
62. CC(NCC(c1ccco1)N(C)C)C(=O)Nc1cccc(F)c1 (stereo unspecified)
63. COC1CCN(C(=O)CC(c2cccc(O)c2)c2cccc(Cl)c2)CC1 (stereo unspecified)
64. Cc1cnc2c(S(=O)(=O)NC3CCN(C(=O)c4ccoc4)CC3)cccc2c1

screen / no.	57	58	59	60	61	62	63	64
NPYLR7 ag	14.5	23.1	-5.1	-0.5	3.7	-0.9	16.4	-4.6
NPYLR7 ag max-min	13.8	27.2	0.6	22.1	3.0	-0.5	5.2	-3.1

65. CC(C)CN(CC(=O)N1CC(=O)N(c2ccc(Cl)cc2)C1)C(=O)C(C)(C)CCl
66. C=CCOc1ccccc1CN1C(=O)C(O)(CC(C)=O)c2ccccc21 (stereo unspecified)
67. O=C(c1cccc(-c2ncn[nH]2)c1)N1CCO[C@@H]2CCCC[C@H]21
68. CCOC(=O)Cn1nc(C)c2ccccc2c1=O
69. Cc1ccc(C(=O)N(CC(=O)Nc2nc(CC(=O)Nc3ccccc3F)cs2)C(C)C)cc1
70. CCCn1c(SCC(=O)OC)nc2ccc(Br)cc2c1=O
71. Cc1ccc(-c2nc(CC(=O)NC(C)(C)c3ccc4c(c3)OCCO4)cs2)o1
72. Cc1nc(C(C)C)[nH]c(=O)c1C(=O)Nc1ccc(N(C)C)c(Cl)c1

screen / no.	65	66	67	68	69	70	71	72
NPYLR7 ag	3.4	24.2	-0.8	5.5	17.0	-6.9	4.9	8.0
NPYLR7 ag max-min	14.5	11.9	-6.7	3.2	15.4	11.9	0.4	6.9

73. O=C(c1ccc(Cl)cc1)N(Cc1nccn1Cc1cccc(F)c1)C1CCCCC1
74. CC(O)c1ccc(CNC(=O)C2CCCN2C(=O)c2ccc(Cl)c(Cl)c2)cc1 (stereo unspecified)
75. C=CC(C)(O)CC[C@@H]1[C@@]2(C)CCCC(C)(C)C2CC[C@@]1(C)O (stereo partly specified)
76. CC(=O)N1CCCC(C(=O)NCC2(c3ccccc3)CCCCC2)C1 (stereo unspecified)
77. CC(C)Sc1nc(N2CCCC2)c2cnn(CCNC(=O)C3CC3)c2n1
78. CN(C)Cc1ccc(CNC(=O)CCCC2CCCCC2)cc1
79. CCN1C(=O)c2cccc3c(NC(=S)NC(=O)c4ccccc4)ccc1c23
80. Cc1c(C)n2c3c(=O)n(CCc4ccccc4)c(=O)n(C)c3nc2n1C1CCCC1

screen / no.	73	74	75	76	77	78	79	80
NPYLR7 ag	14.4	-3.7	-1.9	3.4	-0.2	0.0	-2.1	0.1
NPYLR7 ag max-min	27.1	-5.8	-4.9	2.9	-0.8	-1.0	-4.8	4.0

81. O=C(O)CCCNC(=O)CC1S\C(=N/N=C\C=C\c2ccccc2)NC1=O (stereo unspecified)
82. CCCCCc1ccc(C(=O)Nc2ccc3[nH]cc(CCN4CCc5ccccc5C4)c3c2)cc1
83. O=c1cc(CSc2ncnc3sc4c(c23)CCC4)nc2ccc(Br)cn12
84. Cc1ccc(F)c(NC(=O)CCC(=O)N(C)Cc2cc(C3CC3)n[nH]2)c1
85. O=C(NC1CC1)C1CCCN(c2ccc(-c3ccc(F)cc3)nn2)C1 (stereo unspecified)
86. Clc1cc(CSc2nnnn2C2CC2)cc2c1OCCO2
87. Cc1nc(C(C)C)ncc1C(=O)N1CCCC(c2[nH]ncc2-c2ccccc2)C1 (stereo unspecified)
88. Cc1ccc2oc(=O)n(CC(=O)N(Cc3ccsc3)CC(C)C)c2c1

screen / no.	81	82	83	84	85	86	87	88
NPYLR7 ag	-9.2	20.5	-4.8	1.0	-10.7	-1.8	9.7	-4.0
NPYLR7 ag max-min	-14.9	4.2	-10.5	2.1	-14.5	4.6	6.5	-6.9

89. Cc1nc2ccc(Cl)cn2c(=O)c1NC(=O)CCC1CCCCC1
90. COc1ccnc(C(=O)Nc2n[nH]c(-c3ccc(C)s3)n2)c1
91. O=C(NCc1ccccc1CN1CCCC1=O)c1ccco1
92. CCCN(Cc1cccnc1)C(=O)c1cc(-c2ccccc2)nn1C

screen / no.	89	90	91	92
NPYLR7 ag	2.7	3.7	3.0	17.8
NPYLR7 ag max-min	0.7	0.2	4.0	10.7

Screening data: PubChem, Fisher Drug Discovery Resource Center

Some of the compounds tested; rates above refer to the full screens.
